# Compound activity as filed in PubChem.
# KOR beta-arrestin-1: KOR agonists, beta-arrestin recruitment, primary screen, cell-based, luminescence, uHTS (AID 1777); one-dose activation, % at 10 µM; EC50 in µM for titrated hits; 0.02% of 280,000 active; KOR beta-arrestin recruitment, luminescence; higher % means a stronger effect; in the data active = activation above about 50%, passing the limit was not always enough; note: a part of the inactive calls stands beside numbers as strong as those of hits
# KOR beta-arrestin-2: KOR antagonists, beta-arrestin recruitment, cell-based, luminescence, uHTS (AID 1778). KOR beta-arrestin recruitment, luminescence, antagonist mode; higher % means a stronger effect. one-dose inhibition, % at 10 µM; IC50 in µM for titrated hits. 0.091% of 290,000 active; in the data active = inhibition above about 50%; note: strong numbers were not always called active
# GPR55 beta-arrestin: GPR55 agonists via beta-arrestin recruitment, primary screen, imaging, U2OS cells, beta-arrestin-GFP redistribution (AID 1961); 0.048% of 290,000 active; one-dose activation, % at 10 µM; EC50 in µM for titrated hits; U2OS GPR55 beta-arrestin-GFP redistribution imaging; higher % means a stronger effect;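 active = activation above 40% with more than 50 cells counted in the well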;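 note: U2OS osteosarcoma cells stably expressing GPR55 and beta-arrestin-GFP; plate controls were DMSO negative control for no effect and LPI positive control for full effect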
# Dynein cargo inh: dynein cargo transport inhibition; 3617.4 mouse cells, GR-EGFP nuclear translocation imaging; test concentration mostly 20 µM; stimulated with dexamethasone, 1 µM; hits give low values; z-score, hits read low; 0.47% of 220,000 active;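 active = plate z-score of nuclear minus cytoplasmic receptor signal below a set negative limit, without overly bright fluorescence or cell loss, cut at about -3.5 in these data, passing the limit was not always enough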;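 note: z-score of nuclear minus cytoplasmic ring GR-EGFP intensity difference per well; some compounds called inactive have numbers as strong as hits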
#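 Buffer or medium – tet-free medium with charcoal-stripped serum · Signal – automated 10x imaging of fixed Hoechst-stained cells · Also added – dexamethasone agonist, 1.0 µM final, for 30 min · Incubation – induction 48 h, compound 1 h, agonist 30 min · Read-out – GR-EGFP nuclear translocation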
# P. falciparum M1AAP: P. falciparum M1AAP inhibitors, biochemical, fluorogenic H-Leu-NHMec substrate, 1536-well (AID 1445); 0.42% of 220,000 active; recombinant M1AAP, H-Leu-NHMec fluorogenic kinetic assay; higher % means a stronger effect; inhibition, % at 30 µM, or IC50 in µM where a hit was titrated;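 active = primary inhibition above the hit cutoff, then over 50% inhibition at one or more dose response concentrations, cut at about 23% in these data, passing the limit was not always enough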;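 note: plate controls were DMSO full reaction for no effect and no enzyme background for full effect; strong numbers were not always called active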
# P. falciparum M17LAP: P. falciparum M17LAP inhibitors, primary screen, biochemical, fluorogenic H-Leu-NHMec substrate, 1536-well (AID 1619); recombinant M17LAP, H-Leu-NHMec fluorogenic kinetic assay; higher % means a stronger effect; one-dose inhibition, % at 30 µM; IC50 in µM for titrated hits; 0.38% of 220,000 active;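 active = compound inhibiting the enzyme by more than half at any dose during confirmatory dose-response retesting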;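 note: plate controls were full reaction with DMSO carrier for no effect and no enzyme background for full effect; strong numbers were not always called active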
# AID2073: disruptors of CaV2.2 binding to Mint1 – biochemical, HTRF (AID 2073). HTRF protein-protein interaction, Mint1-CaV2.2; higher % means a stronger effect. 0.19% of 290,000 active. inhibition, % at 20 µM, or IC50 in µM where a hit was titrated; in the data active = inhibition mostly above about 51%, no sharp cut-off; note: some results filed as inactive read as strong as hits
# Dynein cargo inh cytoplasmic EGFP: recorded beside Dynein cargo inh, whose call it bears; z-score; measured here: cytoplasmic GR-EGFP intensity; hits give high values
# Dynein cargo inh nuclear GR-EGFP: second read-out of Dynein cargo inh, no call of its own (marks repeat the call); z-score; measured here: nuclear GR-EGFP intensity;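 lower value marks the stronger effect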
# Dynein cargo inh cell count: second read-out of Dynein cargo inh, no call of its own (marks repeat the call); z-score; measured here: cell count per field
# The depositor's hits bear a star; nt = no result given; [ ] = remark or other dose. An excerpt; rates above refer to the full screens.
nr	mol	KOR beta-arrestin-1	KOR beta-arrestin-2	GPR55 beta-arrestin	Dynein cargo inh	Dynein cargo inh cytoplasmic EGFP
1	O=C1NC(=S)S/C1=C\c1cc2ccccc2nc1N1CCCCC1	36%	-45%	-0.6%	-0.034	-0.17
2	Cc1ccc(CS(=O)(=O)c2ccc(C(=O)N3CCN(c4ccccn4)CC3)cc2[N+](=O)[O-])cc1	-3.5%	-20%	-0.1%	-1.5	-0.041
3	C/C(=N\NC(=O)c1nnn(-c2nonc2N)c1CN(C)c1ccccc1)c1ccccc1O	7.0%	-46%	-0.1%	nt	nt
4	COc1cc(/C=C(/C#N)c2nc3ccccc3[nH]2)ccc1OCc1ccc(C(=O)O)o1	-1.0%	-1%	0.4%	0.41	-0.23
5	O=[N+]([O-])c1ccc(Sc2cccc3cccnc23)c([N+](=O)[O-])c1	3.1%	40%	0.3%	1.5	0.055
6	Cc1oc2c(c1C(=O)c1ccccc1)C(=O)C(=O)c1ccccc1-2	-1.2%	-97%	-0.1%	-1.5	0.0077
7	Cc1ccc(Cc2cnc(N3C(=N)SC(C)C3=O)s2)cc1 (stereo not given)	-5.6%	88%*	-0.6%	1.6	-0.26
8	CCOc1cc(/C=C2\CN(CC)C/C(=C\c3ccc(O)c(OCC)c3)C2=O)ccc1O	-1.0%	-17%	0.0%	nt	nt
9	N=C1S/C(=C\c2ccco2)C(=O)N1c1nccs1	-9.5%	71%*	-0.3%	0.44	-0.32
10	CC(C)c1ccc(/C=C(\c2nc3ccccc3[nH]2)S(=O)(=O)c2ccccc2)cc1	4.7%	19%	3.5%	-3.4	0.83

nr	Dynein cargo inh nuclear GR-EGFP	Dynein cargo inh cell count	P. falciparum M1AAP	P. falciparum M17LAP	AID2073
1	-0.1	-0.26	21%	8%	13%
2	-0.67	0.56	1%	-17%	5%
3	nt	nt	nt	nt	24%
4	0.94	0.28	52µM*	-33%	1%
5	1.2	-0.9	8%	-11%	-23%
6	-1.3	0.17	8%	-4%	-6%
7	0.99	-0.68	-10%	5%	10%
8	nt	nt	nt	nt	-8%
9	0.52	0.28	13%	26%	50%*
10	-2.2	1.4	8%	10%	-2%

# Other compounds follow.
nr	mol	KOR beta-arrestin-1	KOR beta-arrestin-2	GPR55 beta-arrestin	Dynein cargo inh	Dynein cargo inh cytoplasmic EGFP
11	COC(=O)Cc1[nH]n(-c2nc3ccccc3s2)c(=O)c1C(C)=Nc1ccc(C)cc1	nt	11%[20 µM]	-0.1%	0.17	-0.23
12	CCc1nnc(NC(=O)c2ccc(Cl)c(S(=O)(=O)N3CCc4ccccc43)c2)s1	-1.5%	-9%	-0.2%	0.37	-0.015
13	CCCc1nnc(NC(=O)c2nc(S(=O)(=O)Cc3ccc(C)cc3)ncc2Cl)s1	9.0%	-12%	-0.1%	nt	nt
14	O=C(O)c1ccc(S(=O)(=O)/N=C2\C=C(Nc3ccccc3F)C(=O)c3ccccc32)cc1	1.4%	-53%	-0.1%	nt	nt
15	COc1ccc(OC)c(CCNC(=O)Cn2nc(C)c3c(C)n(-c4ccc(C)cc4)nc3c2=O)c1	-1.6%	-24%	0.3%	nt	nt
16	Cc1nc2ccc(NS(=O)(=O)c3c(C)c(C)cc(C)c3C)cc2s1	6.4%	-22%	-0.2%	0.13	-0.033
17	O=S(=O)(Nc1cccc2ncccc12)c1cccs1	-9.5%	2.6µM*	-0.2%	-1.6	0.69
18	Cc1ccc(N(Cc2cc(=O)[nH]c3ccccc23)C(=O)CCl)c(C)c1	-1.7%	32%	0.0%	nt	nt
19	CCC1Sc2ccc(S(=O)(=O)Nc3ccc(OC)c(OC)c3)cc2NC1=O (stereo not given)	0.1%	-3%	0.3%	nt	nt
20	Cc1sc2ncnc(Sc3nnnn3-c3ccccc3)c2c1C	-0.2%	23%	0.3%	-0.68	-0.33

nr	Dynein cargo inh nuclear GR-EGFP	Dynein cargo inh cell count	P. falciparum M1AAP	P. falciparum M17LAP	AID2073
11	0.0038	-0.074	3%	32%	5%
12	0.9	0.37	14%	3%	20%
13	nt	nt	nt	nt	10%
14	nt	nt	nt	nt	-2%
15	nt	nt	nt	nt	-5%
16	0.16	0.23	4%	18%	10%
17	-0.41	-0.47	-12%	-20%	9%
18	nt	nt	nt	nt	0%
19	nt	nt	nt	nt	9%
20	-0.17	0.025	2%	5%	26%

# Entries 9 to 17 of the list above:
nr	mol	KOR beta-arrestin-1	KOR beta-arrestin-2	GPR55 beta-arrestin	Dynein cargo inh	Dynein cargo inh cytoplasmic EGFP
9	N=C1S/C(=C\c2ccco2)C(=O)N1c1nccs1	-9.5%	71%*	-0.3%	0.44	-0.32
10	CC(C)c1ccc(/C=C(\c2nc3ccccc3[nH]2)S(=O)(=O)c2ccccc2)cc1	4.7%	19%	3.5%	-3.4	0.83
11	COC(=O)Cc1[nH]n(-c2nc3ccccc3s2)c(=O)c1C(C)=Nc1ccc(C)cc1	nt	11%[20 µM]	-0.1%	0.17	-0.23
12	CCc1nnc(NC(=O)c2ccc(Cl)c(S(=O)(=O)N3CCc4ccccc43)c2)s1	-1.5%	-9%	-0.2%	0.37	-0.015
13	CCCc1nnc(NC(=O)c2nc(S(=O)(=O)Cc3ccc(C)cc3)ncc2Cl)s1	9.0%	-12%	-0.1%	nt	nt
14	O=C(O)c1ccc(S(=O)(=O)/N=C2\C=C(Nc3ccccc3F)C(=O)c3ccccc32)cc1	1.4%	-53%	-0.1%	nt	nt
15	COc1ccc(OC)c(CCNC(=O)Cn2nc(C)c3c(C)n(-c4ccc(C)cc4)nc3c2=O)c1	-1.6%	-24%	0.3%	nt	nt
16	Cc1nc2ccc(NS(=O)(=O)c3c(C)c(C)cc(C)c3C)cc2s1	6.4%	-22%	-0.2%	0.13	-0.033
17	O=S(=O)(Nc1cccc2ncccc12)c1cccs1	-9.5%	2.6µM*	-0.2%	-1.6	0.69

nr	Dynein cargo inh nuclear GR-EGFP	Dynein cargo inh cell count	P. falciparum M1AAP	P. falciparum M17LAP	AID2073
9	0.52	0.28	13%	26%	50%*
10	-2.2	1.4	8%	10%	-2%
11	0.0038	-0.074	3%	32%	5%
12	0.9	0.37	14%	3%	20%
13	nt	nt	nt	nt	10%
14	nt	nt	nt	nt	-2%
15	nt	nt	nt	nt	-5%
16	0.16	0.23	4%	18%	10%
17	-0.41	-0.47	-12%	-20%	9%

# (cont.)
nr	mol	KOR beta-arrestin-1	KOR beta-arrestin-2	GPR55 beta-arrestin	Dynein cargo inh	Dynein cargo inh cytoplasmic EGFP
21	COc1ccc(C(=O)c2c(C(F)(F)F)oc3c2C(=O)c2ccccc2C3=O)cc1	5.0%	-83%	0.0%	0.39	-0.21
22	COc1cc(F)ccc1CN1CCC(C(=O)Nc2ccc(Oc3ccccc3)nc2)CC1	0.2%	22%	-0.1%	nt	nt
23	Cc1ccc(S(=O)(=O)n2cnc3ccccc32)cc1	1.3%	26%	-0.2%	0.14	-0.22
24	Cc1nn(Cc2ccc(Cl)cc2)c(C)c1NC(=O)c1noc2c1CCc1ccccc1-2	7.6%	-10%	-0.2%	-0.083	-0.25
25	Cc1cccc(C)c1OCC(=O)OC/C(O)=C(\C#N)c1nc2ccccc2[nH]1	-2.8%	-19%	-0.2%	0.19	0.14
26	O=C(O)CCn1cc(/C=C\C(=O)c2ccc(Cl)cc2)c(-c2cccc(Br)c2)n1	-1.5%	26%	0.4%	-1.7	-0.035
27	Cc1ccc(C)c(NC(=O)CSc2nc3nc(-c4cccs4)cc(C(F)(F)F)c3c(=O)[nH]2)c1	13%	-12%	0.0%	-0.54	-0.75
28	CCOc1ccc(NC(=S)NC(=O)/C=C/c2ccc(C)cc2)c([N+](=O)[O-])c1	14%	-7%	0.2%	0.49	-0.05
29	Cc1ccc(S(=O)(=O)c2ncccc2[N+](=O)[O-])cc1	-0.9%	28%	0.3%	nt	nt
30	Cc1ccccc1-c1cc(C(=O)Nc2sc(C(=O)OC(C)C)c(C)c2C#N)c2ccccc2n1	0.9%	-25%	-0.4%	-0.19	0.21

nr	Dynein cargo inh nuclear GR-EGFP	Dynein cargo inh cell count	P. falciparum M1AAP	P. falciparum M17LAP	AID2073
21	0.53	0.064	9%	-5%	7%
22	nt	nt	nt	nt	10%
23	-0.039	0.94	-3%	-3%	6%
24	0.17	0.076	7%	2%	2%
25	0.31	-1	-2%	-4%	21%
26	-0.63	-0.16	23%	34%	23%
27	-0.54	0.46	16%	-29%	20%
28	0.62	-0.2	8%	12%	-15%
29	nt	nt	nt	nt	2%
30	0.17	0.017	2%	-6%	18µM*

# The list continues:
nr	mol	KOR beta-arrestin-1	KOR beta-arrestin-2	GPR55 beta-arrestin	Dynein cargo inh	Dynein cargo inh cytoplasmic EGFP
31	Cc1nn2c([nH]c(=O)c3ccccc32)c1C=O	2.3%	-32%	-0.1%	-0.26	-0.45
32	Cc1cc(C(=O)CN2C(=O)c3ccccc3S2(=O)=O)c(C)n1CC1CCCO1 (stereo not given)	-3.3%	5%	-0.1%	0.67	-0.23
33	NC(=O)c1sc2nc3c(c(-c4cccs4)c2c1N)CCCCC3	4.0%	-33%	-0.2%	0.23	-0.18
34	N#C/C(=N\Nc1cccc(C(F)(F)F)c1)C(=O)c1csc(-c2cccnc2)n1	0.9%	-13%	0.1%	0.95	-0.23
35	CCN1/C(=C/c2ccc3ccccc3[n+]2CC)C=Cc2ccccc21	3.0%	-11%	-0.1%	2	1.4
36	CC(C)c1ccc(S(=O)(=O)/N=C2\C=C(NS(=O)(=O)c3ccccc3)C(=O)c3ccccc32)cc1	1.9%	-39%	0.5%	nt	nt
37	CCc1c(C)sc2nc(C(C)C)nc(SCC(=O)N3CCc4ccccc4C3)c12	-1.0%	14%	0.2%	-0.3	-0.2
38	CC(/C=C1\SC(=O)N(CCCC(=O)O)C1=O)=C\c1ccccc1	5.0%	1%	-0.3%	1.6	-0.089
39	O=C1CCC2S/C(=C/Nc3ccc(C(F)(F)F)cc3)C(=O)N12 (stereo not given)	0.4%	-14%	-1.1%	1.2	0.036
40	Cc1ccc(-n2ncc(Br)c(Br)c2=O)cc1	-5.1%	36%	-0.1%	-5.9*	2.1*
41	N=C1SCC(=O)N1c1ncc(Cc2ccc(F)cc2)s1	nt	7.3µM*	-0.2%	-0.056	-0.24

nr	Dynein cargo inh nuclear GR-EGFP	Dynein cargo inh cell count	P. falciparum M1AAP	P. falciparum M17LAP	AID2073
31	0.016	0.66	-4%	41%	0%
32	0.61	0.88	2%	8%	14%
33	0.24	0.45	-1%	-8%	46%
34	0.98	-0.55	11%	26%	-9%
35	1.5	-0.87	10%	38%	-10%
36	nt	nt	nt	nt	17%
37	-0.43	0.16	4%	-3%	24%
38	0.54	-1.5	9%	16µM*	0%
39	0.99	-2	21%	30%	-9%
40	-2.5*	0.26*	-5%	-2%	4%
41	-0.1	0.15	-7%	11%	7%
